GALR2 agonist – GALR2 (human) receptor agonism. O43603. GALR2-expressing cells, agonist activation read-out. activation, %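 (tested at 5 µM)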. 140,000 compounds, 0.48% hits;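 active = above mean plus 3 SD of all compounds, about 5% in these data, not always enough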;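 also: 0% = vehicle buffer wells and 100% = reference agonist at full effect; tested in CHO reporter cells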
Target sequence (O43603 whole entry, looked up): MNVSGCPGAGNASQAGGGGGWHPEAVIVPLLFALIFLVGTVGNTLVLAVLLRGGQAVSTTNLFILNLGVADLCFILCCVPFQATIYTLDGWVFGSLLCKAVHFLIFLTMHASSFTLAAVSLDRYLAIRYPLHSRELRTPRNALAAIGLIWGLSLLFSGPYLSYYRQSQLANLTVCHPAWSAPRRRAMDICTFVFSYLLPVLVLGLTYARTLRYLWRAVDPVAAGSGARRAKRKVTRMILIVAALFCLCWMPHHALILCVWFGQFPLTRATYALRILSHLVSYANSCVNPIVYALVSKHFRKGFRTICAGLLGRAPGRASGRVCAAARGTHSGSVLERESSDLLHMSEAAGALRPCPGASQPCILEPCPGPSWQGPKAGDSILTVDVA
INS promoter inh – TRM-6 insulin promoter activity inhibition; TRM-6 cells (human fetal islet line), insulin promoter-eGFP reporter, imaging; reporter expression induced with tamoxifen; inhibition, % at 2 µM; 130,000 compounds, 0.9% hits; AID 1273;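 active = inhibition above the mean plus 3 SD, with well images judged a real hit on visual review, cut at about 60% in these data, passing the limit was not always enough; inconclusive = inhibition over the cutoff but images rejected on review; inactive = inhibition not above the cutoff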
PKD1 kinase inh – inhibitors of human PKD1 kinase; inhibition, %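 (about 10 µM by stock and volumes)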; 200,000 compounds, 0.056% hits; PKD1 kinase fluorescence polarization assay; Q15139; AID 797;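 active = inhibition of 50% or more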;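 also: controls were vehicle for no effect and a reference inhibitor for full effect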
RGS16-Gao – regulators of human RGS16-Galphao interaction; binding response (% of control), % at 10 µM; 220,000 compounds, 0.38% hits; AID 1441; O15492+P09471; bead-based flow cytometry RGS16-Galphao binding, fluorescence; actives lie on both sides;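 active = below 25% or above 175%, edge rows of some plates excepted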;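 also: Galphao activated by GDP with aluminum fluoride before binding; 100% = wells without compound and 0% = beads without RGS; some results beyond the cut were filed as inactive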
Target sequence (O15492 whole entry, looked up): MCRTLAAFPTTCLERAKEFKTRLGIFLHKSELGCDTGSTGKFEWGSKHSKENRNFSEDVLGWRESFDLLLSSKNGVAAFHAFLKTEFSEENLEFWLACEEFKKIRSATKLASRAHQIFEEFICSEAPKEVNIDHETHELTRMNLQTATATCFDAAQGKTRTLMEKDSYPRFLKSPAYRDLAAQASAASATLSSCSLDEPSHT
Target sequence (P09471 whole entry, looked up): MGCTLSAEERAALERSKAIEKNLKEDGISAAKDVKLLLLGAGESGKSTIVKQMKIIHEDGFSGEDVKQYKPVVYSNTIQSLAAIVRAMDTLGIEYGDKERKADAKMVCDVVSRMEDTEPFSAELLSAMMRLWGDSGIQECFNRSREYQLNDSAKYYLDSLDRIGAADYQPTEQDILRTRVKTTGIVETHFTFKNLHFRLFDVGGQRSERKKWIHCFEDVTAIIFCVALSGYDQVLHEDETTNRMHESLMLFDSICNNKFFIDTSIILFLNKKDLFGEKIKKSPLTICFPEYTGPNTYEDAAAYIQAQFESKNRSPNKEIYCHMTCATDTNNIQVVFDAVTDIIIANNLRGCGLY
HSV replic up – HSV replication enhancement; HSV replication augmentation in cells, fold increase; maximum fold increase; 220,000 compounds, 0.005% hits;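 active = peak rise of 1.5-fold or more in the series; inconclusive = self-fluorescent or not available for retest; tested in PC3 cells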;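 also: first round at 10 µM; read as green reporter fluorescence; hits show the peak of a series up to 25 µM; 1 = signal of infected wells without compound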
INS promoter inh cell count – further read-out of INS promoter inh, marked with its call; normalized cell count, %; measured here: cell count, toxicity; reference of the scale not given here;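 cells exposed to compound for 48 h; stained nuclei by imaging scaled within each plate; lower means fewer cells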
HSV replic up primary fold – also measured in HSV replic up; calls as there; fold increase; compound at 10 µM; measured here: primary screen fold increase 10 uM; tested in PC3 cells;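 GFP signal in the first replicate; 1 = infected wells without compound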
Starred values were filed as active, the others as inactive; i = inactive; ? = inconclusive; · = not tested or not shown.

SMILES	GALR2 agonist	INS promoter inh	INS promoter inh cell count	PKD1 kinase inh	RGS16-Gao	HSV replic up	HSV replic up primary fold
O=C(N/N=C/c1ccco1)c1cc(-c2ccc(Cl)cc2)n[nH]1	·	·	·	·	98	i	0.86
COCc1cc(N2CCOCC2)nc(-c2ccccc2)n1	·	-100	59	-4	131	i	1
CC(=O)N1CCc2cc(C(=O)CN3CCC(C)CC3)ccc21	-3.4	·	·	8	95	i	0.68
CC(=O)N/C(=C/c1ccc(OS(=O)(=O)c2ccc(C)cc2)cc1)C(=O)Nc1ccc(C(=O)O)cc1	·	·	·	·	95	i	0.94
Cc1ccccc1Cc1c(C)nc2nc(SCC(=O)NCc3ccco3)nn2c1C	0.1	40	77	-22	99	i	1
COc1ccc(-c2nnc(Nc3ccc(CC(N)=O)cc3)c3ccccc23)cc1	-1.3	·	·	6	102	i	0.93
CCCC(=O)Nc1ccc(C(=O)NNC(=O)COc2ccc(Br)c(C)c2)cc1	-0.7	9	125	-4	100	·	·
CCCn1c(CNC(=O)Cc2ccccc2)nc2ccccc21	-0.8	·	·	-2	112	i	0.83
CCCCC(=O)Nc1cccc(NC(=S)NC(=O)C(C)C)c1	-0.8	·	·	-7	98	i	1
O=C(CSc1ncnc2nc[nH]c12)N1CCN(c2ccc(Cl)cc2)CC1	-0.6	29	62	7	-3	i	0.89
COC(=O)COc1ccc(S(=O)(=O)N2CCN(c3ccc(F)cc3)CC2)cc1	-0.6	3	121	0	104	i	0.85
Nc1ccc(C(=O)Nc2ccco2)cc1	-1.8	-100	77	-3	113	i	0.97
CCCCOC(=O)NC1(C)CCS(=O)(=O)C1 (stereo not given)	-1.0	7	150	-5	100	i	0.88
Cc1ccc(-c2cc(-c3ccc(F)cc3)nc(N)c2C#N)o1	0.3	·	·	2	96	i	1
COc1ccc(C(=O)CSc2nnc(-c3ccccn3)n2Cc2ccco2)cc1	-0.7	·	·	-11	93	i	0.89
COc1ccc(Oc2ccccc2/C=N/O)cc1	0.9	-38	72	-1	99	i	0.88
CC(C1CC1)N(Cc1ccccc1)C(=S)Nc1cccc(C(F)(F)F)c1 (stereo not given)	-0.3	-28	109	-11	62	i	0.79
O=C(CNC(=O)c1cccc(F)c1)N/N=C/C=C/c1ccccc1	·	·	·	5	102	i	0.93
CCOC(=O)N1CCc2c(sc3nc(SC(C)C)n(N)c(=O)c23)C1	-1.3	·	·	3	105	i	0.96
O=C(Nc1ccccc1F)c1cc2c(s1)-c1ccccc1S(=O)(=O)C2	·	·	·	·	90	i	0.64
O=C(NCC1CCCO1)c1ccc(NS(=O)(=O)c2cccc([N+](=O)[O-])c2)cc1 (stereo not given)	·	·	·	1	97	i	1.1
Cc1ccc(NN2C(=O)C=CC2=O)cc1	1.0	12	70	1	62	i	1.1
O=C(NC1CCCC1)C1CCN(C(=O)c2ccc(-c3ccccc3)cc2)CC1	·	·	·	-13	106	i	0.99
COCCN1C(=O)C(=O)/C(=C(/O)c2ccc3c(c2)OCCO3)C1c1ccc(C(=O)OC)cc1 (stereo not given)	-1.2	18	71	-6	101	i	1.1
COC(=O)c1cccc(Nc2cc(C)nc(-c3ccccc3O)n2)c1	-2.1	·	·	-3	101	i	1.1
SMILES	GALR2 agonist	INS promoter inh	INS promoter inh cell count	PKD1 kinase inh	RGS16-Gao	HSV replic up	HSV replic up primary fold
O=C(NC1CCS(=O)(=O)C1)/C(=C\c1ccco1)NC(=O)c1ccccc1 (stereo not given)	·	·	·	·	97	i	0.95
CCOC(=O)c1ccc(NC(=O)c2ccc(OC(C)C)c(OC)c2)cc1	·	·	·	3	103	i	1
CCn1nnc(NC(=S)NC(=O)c2ccc(-c3cccc(Cl)c3)o2)n1	·	·	·	·	90	i	1.1
CC1=C(C(=O)Nc2ccccc2)C(c2ccco2)NC(=O)N1 (stereo not given)	-1.1	39	128	-4	100	i	0.8
CCC1(C)Cc2c(C#N)c(N)n(-c3ccccc3)c(=O)c2CO1 (stereo not given)	-1.2	-17	69	-5	207	i	0.54
O=C(Nc1ccc2oc(-c3ccc4ccccc4c3)nc2c1)c1ccc2c(c1)OCCO2	-2.3	·	·	0	104	i	0.47
CC(Nc1cccnc1)=C(C#N)C#N	·	·	·	-4	87	i	0.99
COc1cccc(NC(=O)Cn2c(CCC(=O)O)ccc2-c2cccs2)c1	·	·	·	-7	103	i	1
CC(C)Oc1ccc2c(=O)c(-c3ccccc3)coc2c1	-1.4	-39	84	-9	102	i	0.9
Cc1nnc(SCC(=O)N2c3ccccc3C(C)(c3ccccc3)CC2(C)C)s1 (stereo not given)	-0.6	-7	100	-7	58	i	0.95
Cc1nn(CC#N)c(=O)n1-c1ccccc1F	-1.5	-88	120	-13	110	i	1
CCOc1ccc(OCC)c(-c2c(=O)n(OCc3ccc(C(C)(C)C)cc3)c3ccccc3[n+]2[O-])c1	-0.9	-47	76	-3	117	i	0.96
c1ccc(OCCCc2nc(-c3ccccn3)no2)cc1	-3.5	27	135	4	100	i	1.1
CCc1ccc(O)c(N=Cc2cccc(C)c2O)c1	-1.2	20	78	-13	96	i	1.1
CCN(C(=O)c1cccc(Br)c1)c1ccccc1	0.1	24	133	1	113	i	0.92
Cc1ccccc1CC1(CO)CCCN(C(=O)c2cccc(Cl)c2)C1 (stereo not given)	·	·	·	-3	104	i	0.95
CCOC(=O)C1(CC/C(C)=N\NC(N)=O)CC(C)OC1=O (stereo not given)	-0.1	·	·	13	98	i	1.1
COc1ccc(-c2c3c(=O)n(C)c(=O)n(C)c3cn2-c2cccc(OC)c2)cc1	0.0	21	121	-3	104	i	0.94
COc1ccc(/C=N/NC(=S)SC)cc1OC	·	-7	143	3	103	i	0.9
CN1c2ccccc2C(C)(C)C12CC(c1ccc(S(=O)(=O)N3CCCCC3)cc1)=NO2 (stereo not given)	-0.8	54	108	-13	109	i	0.9
N#CC1=C(N)OC2=C(CCc3ccccc32)C1c1ccccc1Cl (stereo not given)	0.7	-77	5	-3	100	i	0.99
CC(=O)Nc1nnc(COc2ccc(Cl)cc2)s1	·	·	·	3	102	i	1
Cc1ccc(-c2cc(C(F)(F)F)n3nc(C(=O)Nc4c(C)n(C)n(-c5ccccc5)c4=O)cc3n2)cc1	-2.0	-23	83	1	101	i	0.91
O=C(CN(CCO)c1ccccc1)Nc1ccc(Cl)c(S(=O)(=O)N2CCOCC2)c1	·	·	·	2	87	i	1
COc1cccc(C(=O)NCc2cn3ccsc3n2)c1	-2.4	·	·	-6	113	i	0.82

Sorted by count of non-hydrogen atoms (smallest number first): part of the list above.
SMILES	GALR2 agonist	INS promoter inh	INS promoter inh cell count	PKD1 kinase inh	RGS16-Gao	HSV replic up	HSV replic up primary fold
CCc1ccc(O)c(N=Cc2cccc(C)c2O)c1	-1.2	20	78	-13	96	i	1.1
c1ccc(OCCCc2nc(-c3ccccn3)no2)cc1	-3.5	27	135	4	100	i	1.1
CCC1(C)Cc2c(C#N)c(N)n(-c3ccccc3)c(=O)c2CO1 (stereo not given)	-1.2	-17	69	-5	207	i	0.54
Cc1nnc(SCC(=O)N2c3ccccc3C(C)(c3ccccc3)CC2(C)C)s1 (stereo not given)	-0.6	-7	100	-7	58	i	0.95

Later entries.
SMILES	GALR2 agonist	INS promoter inh	INS promoter inh cell count	PKD1 kinase inh	RGS16-Gao	HSV replic up	HSV replic up primary fold
Cc1ccc(CNC(=O)C2C3C=CC(C3)C2C(=O)O)cc1 (stereo not given)	-1.7	-372	64	-5	92	i	0.72
Cc1ccc(NC(=O)CN2C(=O)NC(C)(CCc3ccccc3)C2=O)cc1 (stereo not given)	·	·	·	-10	101	i	0.92
COc1cccc(OC)c1C(=O)NC(=S)Nc1ccc2c(c1)OCCO2	·	-85	83	-5	100	i	0.97
O=C(Nc1ccccc1C(=O)N1CCCCC1)NC1CCCCC1	·	·	·	-9	108	i	0.64
CCOC(=O)CNc1nc(C(C)(C)C)nc2c1nnn2Cc1ccccc1Cl	0.7	-11	117	1	118	i	1.1
O=C(NCc1ccc(F)cc1)C(c1cccs1)N(C(=O)c1csnn1)C1CC1 (stereo not given)	-1.9	-52	78	1	103	i	1
Cc1ccc(S(=O)(=O)NCC(=O)N2CCN(c3ccccc3F)CC2)cc1	-1.5	23	113	-12	102	i	0.87
COc1cccc(NC(=S)N(CCCN2CCOCC2)Cc2cn(C)c3ccccc23)c1	-0.4	·	·	-14	104	i	0.67
Cc1ccccc1NC(=O)CNc1ccccc1N1CCCCC1	0.8	·	·	-1	75	i	0.96
COc1ccc(Cn2cccc(NC(=O)Nc3ccc(C#N)cc3)c2=O)cc1	0.6	·	·	-5	99	i	0.94
CN(/N=C/c1ccc(Cl)cc1)c1ncc(Cl)cc1C(F)(F)F	·	·	·	·	99	i	1.1
COc1ccc(S(=O)(=O)Nc2cccnc2)c(Cl)c1Cl	·	·	·	-2	105	i	0.96
Cc1ccc(/C=C/c2nc3ccccc3[nH]2)o1	·	71*	141*	-8	103	?	·
O=C(O)CSc1nccn1-c1cccc(Cl)c1	-2.3	0	85	4	103	i	0.92
Cn1nc(CC(=O)Nc2ncc(Br)s2)c2ccccc2c1=O	-1.3	5	68	-8	98	i	0.77
O=[N+]([O-])c1cccc(-c2cc(C(F)(F)F)n3nc(-c4ccccc4)cc3n2)c1	·	·	·	·	114	i	0.95
Nc1n[nH]c(N)c1N=Nc1ccc(Cl)cc1	-2.3	·	·	6	101	i	0.96
CCCN1C2CCCC1CC(NC(=O)c1ccccc1)C2 (stereo not given)	-3.1	·	·	-8	102	i	0.92
O=C(CN1C(=O)C(=O)c2ccccc21)NC1CCCCC1	-2.0	29	64	-1	113	i	0.89
CN1CCN(/N=C2/C(=O)Nc3ccc([N+](=O)[O-])cc32)CC1	·	33	83	-3	182	i	1
CSc1ccccc1C(=O)Nc1ccc2c(c1)OCCO2	-0.3	0	158	-10	106	i	0.9
Cc1cc(C)n2nc(SCC(=O)NCc3ccco3)nc2n1	-1.5	·	·	-6	107	i	0.72
COc1ccc(C)cc1NS(=O)(=O)c1cccc2nonc12	-0.3	·	·	-7	146	·	·
O=C(CSc1nccn1-c1ccccc1)NCc1ccc(F)cc1	·	·	·	1	103	i	0.96
CC(C)CCn1cnc2c([nH]c3cccc(Cl)c32)c1=O	1.6	58	92	1	113	i	0.78
SMILES	GALR2 agonist	INS promoter inh	INS promoter inh cell count	PKD1 kinase inh	RGS16-Gao	HSV replic up	HSV replic up primary fold
Oc1ccccc1C1CC(c2cccs2)=NC(c2ccc(Cl)cc2)N1 (stereo not given)	·	50	91	4	110	i	0.97
COc1ccc2oc(C(=O)CCC(=O)O)c(N)c2c1	-2.4	·	·	-8	102	·	·
CN(C(=O)Cc1ccccc1)n1cnnc1	1.4	-42	58	-8	104	i	1.1
CCCCNC(=O)N1CCN(Cc2ccc(F)cc2)CC1	·	-68	68	0	105	i	0.87
O=C(CCc1nnc(CCCCc2ccccc2)o1)N1CCCCC1CCO (stereo not given)	·	·	·	·	105	i	1.1
CC(C)(C)c1ccccc1NC(=O)c1ccco1	-0.2	·	·	-6	102	i	0.91
CN1CCN(c2ccccc2NC(=O)c2ccc(F)cc2)CC1	·	·	·	·	104	i	0.92
COc1cc2cc(CN(CCc3cccc(C)c3)C(=S)NCCCN(C)C)c(=O)[nH]c2cc1OC	0.6	-23	136	-16	98	i	0.54
CCOCCCNCC(=O)Nc1ccccc1N1CCOCC1	-0.7	·	·	-15	110	i	1.1
COc1ccc(C(=O)NCC(=O)OCC(=O)Nc2cc([N+](=O)[O-])ccc2F)cc1	·	·	·	-2	100	i	0.86
COC(=O)CSC1=C(C#N)C(c2ccc(C(C)C)cc2)CC(=O)N1 (stereo not given)	-5.0	·	·	-9	103	i	0.93
O=C(Cc1ccccc1)NCC(=O)N/N=C/c1ccc(Cl)cc1	·	17	102	4	102	i	0.86
O=C(c1ccc(S(=O)(=O)N2CCOCC2)cc1)N1CCN(C2=NS(=O)(=O)c3ccccc32)CC1	-1.7	·	·	-3	97	i	0.94
O=C(COC(=O)C1CC(=O)N(c2ccc3c(c2)OCCO3)C1)Nc1ccc2c(c1)CCC2 (stereo not given)	-0.6	·	·	-5	122	i	0.92

Looked up above:
INS promoter inh, Cc1ccc(S(=O)(=O)NCC(=O)N2CCN(c3ccccc3F)CC2)cc1 reads 23
RGS16-Gao, O=[N+]([O-])c1cccc(-c2cc(C(F)(F)F)n3nc(-c4ccccc4)cc3n2)c1 reads 114
PKD1 kinase inh, Cc1cc(C)n2nc(SCC(=O)NCc3ccco3)nc2n1 reads -6
PKD1 kinase inh, CCC1(C)Cc2c(C#N)c(N)n(-c3ccccc3)c(=O)c2CO1 (stereo not given) reads -5
HSV replic up primary fold, O=C(c1ccc(S(=O)(=O)N2CCOCC2)cc1)N1CCN(C2=NS(=O)(=O)c3ccccc32)CC1 reads 0.94
RGS16-Gao, CC(=O)N/C(=C/c1ccc(OS(=O)(=O)c2ccc(C)cc2)cc1)C(=O)Nc1ccc(C(=O)O)cc1 reads 95

Bioassay records (PubChem BioAssay)
